VACV Venus inh – vaccinia inhibition (Venus reporter) | Vaccinia virus Venus reporter expression, fluorescence | Potency, µM (series often up to 36.5 µM), for inactives: top-dose activity change, negative = inhibition, hits mostly inhibitors | 0.46% of 330,000 active | AID 720580; active means well fitted inhibition curve with a large enough effect; inconclusive means small, poorly fitted or top-dose-only effect; inactive means no such curve, though single readings can be large or run the other way; tested in A549 cells; note: nearly all actives have a fitted effect of over 30% in size; inactives centre near -10
Vaccinia mCherry – vaccinia inhibition (mCherry reporter); Potency, µM (titrated, usually from 36.5 µM), for the others: top-dose activity change, negative = inhibition, actives largely listed as inhibitors; 0.63% of 310,000 active; Vaccinia virus mCherry reporter infection, fluorescence; about a quarter of the inactives have no number; active = well fitted inhibition curve with a large enough effect; inconclusive = small, poorly fitted or top-dose-only effect; inactive = no such curve, though single readings can be large or run the other way; tested in A549 cells; note: nearly all actives have a fitted effect of over 35% in size; inactives centre near -10
Numbers without * were called inactive; i = inactive; ? = inconclusive; . = no result given; & = joins results of further samples; [ ] = another dose, or the depositor's remark. % is set by controls: 0 for no effect and ±100 for the full control effect; potency is the fitted concentration of half-maximal effect.

A first look (six entries):
SMILES	VACV Venus inh	Vaccinia mCherry
CCN(CC)S(=O)(=O)c1ccc(-c2cn3cc(Cl)ccc3n2)cc1	-19%	2%
NC(=O)c1nsc(C(=O)N(c2ccc(F)cc2)C(C(=O)NCC2CCCO2)c2ccc3ncccc3c2)c1N (stereo not drawn)	-5%	4%
CCOc1ccc2nc(N=Nc3c(O)[nH]c(=S)[nH]c3=O)sc2c1	1%	-1%
Cc1nn(-c2ccccc2)c2sc(C(=O)Nc3cccc(Br)c3)cc12	-20%	?
O=C(NCc1cccc(C(F)(F)F)c1)C1C(=O)Nc2ccccc2C(=O)N1C1CCCC1 (stereo not drawn)	-9%	19%
COc1ccc(CCNC(=O)c2c3c(nc4ccccc24)C(=O)N(C2CCCCC2)C3)cc1OC	-13%	-7%

The listing, repeating the preview:
SMILES	VACV Venus inh	Vaccinia mCherry
CCN(CC)S(=O)(=O)c1ccc(-c2cn3cc(Cl)ccc3n2)cc1	-19%	2%
NC(=O)c1nsc(C(=O)N(c2ccc(F)cc2)C(C(=O)NCC2CCCO2)c2ccc3ncccc3c2)c1N (stereo not drawn)	-5%	4%
CCOc1ccc2nc(N=Nc3c(O)[nH]c(=S)[nH]c3=O)sc2c1	1%	-1%
Cc1nn(-c2ccccc2)c2sc(C(=O)Nc3cccc(Br)c3)cc12	-20%	?
O=C(NCc1cccc(C(F)(F)F)c1)C1C(=O)Nc2ccccc2C(=O)N1C1CCCC1 (stereo not drawn)	-9%	19%
COc1ccc(CCNC(=O)c2c3c(nc4ccccc24)C(=O)N(C2CCCCC2)C3)cc1OC	-13%	-7%
Cc1cc(NCCN2CCOCC2)n2c(nc3ccccc32)c1C#N	1%	-7%
Cc1cc(C)c(NC(=O)c2ccc(CNS(=O)(=O)c3cc(C(F)(F)F)ccc3Cl)cc2)c(C)c1	?	?
Cc1cc(=O)oc2cc(O[C@@H]3O[C@H](CO)[C@H](O)[C@H](O)[C@H]3O)ccc12	-1%	-10%
Cc1ccc(S(=O)(=O)NCC(=O)N(CC(=O)NCc2ccco2)Cc2ccco2)cc1	-15%	-1%
c1ccc2c(c1)COC(CN1CCCCC1)OC2	-5%	i
CC(=O)Nc1ccc(NC(=O)c2ccccc2-n2cnnn2)cc1	13%	-8%
CC1CN(C(=O)c2ccccc2)C(=Nc2cccc(S(=O)(=O)N(C)C)c2)S1 (stereo not drawn)	-23%	-10%
C=C(C)[C@@H]1CC[C@]2(C(=O)O)CC[C@]3(C)[C@H](CC[C@@H]4[C@@]5(C)CC[C@H](O)C(C)(C)[C@@H]5CC[C@]43C)[C@@H]12	-10%	i
Cc1cccc(OCCn2ccnc2)c1C	-23%	-1%
Cc1ccccc1OCc1nc2c3cnn(-c4cccc(F)c4)c3ncn2n1	-11%	-13%
CCN(CC)CCn1c2c(c(SCC(=O)NCc3ccccc3)nc1=O)CCC2	-15%	-6%
CC(C)c1ccc(/C=C/C(=O)Nn2cnnc2)cc1	-4%	-9%
O=c1c(-c2ccc(F)cc2)[n+]([O-])c2ccccc2n1OCc1ccccn1	-6%	6%
COC(=O)c1scc(C)c1NC(=O)C1CCCCC1	-8%	i
Cc1cc(C(=O)O)ccc1-c1ccc(/C=C2\NC(=O)N(Cc3ccccc3Cl)C2=O)o1	-3%	-10%
COc1cccc(OC)c1Oc1ccc(C(F)(F)F)cn1	-7%	-2%
COc1ccccc1Nc1nn2c(=O)c3ccc(C(=O)NCCC4=CCCCC4)cc3nc2s1	7.9µM*	8.9µM*
COc1ccc(Cl)cc1NC(=S)Nc1cccnc1	-5%	-2%
CCn1ncc([N+](=O)[O-])c1C(=O)N1CCCC1	-11%	-13%
COC(=O)C1=C(C)N(Cc2ccccc2)C(=NCc2ccco2)N[C@H]1c1cccc(F)c1	-18%	-14%
NS(=O)(=O)c1ccc(NC(=O)/C(=C/c2ccncc2)NC(=O)c2ccccc2)cc1	-2%	-1%
O=C(CC1c2ccccc2Oc2ccccc21)Nc1ccccc1C(F)(F)F	-18%	-26%
CCc1c(C)nc(SCC(=O)Nc2ccc(Br)cc2)[nH]c1=O	-12%	i
C=CCn1c(COc2ccc(CC)cc2)nnc1SC/C(O)=C(\C#N)c1nc2ccccc2[nH]1	-1%	-12%

Sorted by molar mass (high to low): some entries from above.
SMILES	VACV Venus inh	Vaccinia mCherry
CCN(CC)CCn1c2c(c(SCC(=O)NCc3ccccc3)nc1=O)CCC2	-15%	-6%
Cc1ccccc1OCc1nc2c3cnn(-c4cccc(F)c4)c3ncn2n1	-11%	-13%
COc1ccc(Cl)cc1NC(=S)Nc1cccnc1	-5%	-2%

Following part
SMILES	VACV Venus inh	Vaccinia mCherry
Cc1ccc(S(=O)(=O)N2CCN(C(=O)CSc3nc4ccccc4o3)C2)cc1	-18%	-11%
CC(/C=C/c1ccccc1)=N\NC(=S)NC(C)C	-22%	-16%
CCN(C(=O)COC(=O)c1cc(S(=O)(=O)N2CCc3ccccc32)ccc1OC)C1CCS(=O)(=O)C1 (stereo not drawn)	-1%	-6%
Cc1cc(SCC(=O)NCC(c2cccs2)N2CCOCC2)c(C)cc1Br (stereo not drawn)	-21%	?
COc1ccc(C(=O)Nc2ccc(Cl)c(S(=O)(=O)N3CCOCC3)c2)cc1	-3%	i
COc1ccc(NC(=O)CCc2c(C)nc3c(c2C)c(=O)n(C)c(=O)n3C)cc1OC	1%	-5%
CCOc1ccc(CN2CCN(C(=O)c3ccccc3)CC2)cc1	?	?
CC(=O)c1cccc(NS(=O)(=O)c2cc3c(cc2C)N(C(C)=O)CCO3)c1	-8%&-7%	-22%&-4%
Cc1ccc(C(C(=O)NC2CCCC2)N2CCCCC2)cc1 (stereo not drawn)	-5%	i
COc1ccc(C(=O)COC(=O)CCN=C2NS(=O)(=O)c3ccccc32)c(OC)c1	-7%	-15%
COc1ccc(NC(=O)CSc2nnc(-c3nonc3NC(C)=O)n2-c2ccccc2)cc1	-17%	-1%
CCOC(=O)Cc1csc(NC(=O)c2cccc(OC)c2)n1	-10%	i
CCCCOc1ccccc1C1CC(=O)NC2=C1C(=O)CCC2 (stereo not drawn)	-28%	?
CN1CCN(NC(=O)c2cn(-c3ccccc3)nc2-c2cccc(Br)c2)CC1	-19%	-23%
COc1ccc2cc3cc(C(=O)N4CCN(Cc5ccc6c(c5)OCO6)CC4)oc3nc2c1	?	-5%

Single records, from the list above. Order of values: VACV Venus inh, Vaccinia mCherry
Results for COc1ccc(C(=O)COC(=O)CCN=C2NS(=O)(=O)c3ccccc32)c(OC)c1 = -7%, -15%
Results for COc1ccc(NC(=O)CCc2c(C)nc3c(c2C)c(=O)n(C)c(=O)n3C)cc1OC = 1%, -5%
Results for CCN(C(=O)COC(=O)c1cc(S(=O)(=O)N2CCc3ccccc32)ccc1OC)C1CCS(=O)(=O)C1 (stereo not drawn) = -1%, -6%

Later entries.
SMILES	VACV Venus inh	Vaccinia mCherry
COc1ccc(C(O)Cc2nc3ccccc3n2C)cc1OC (stereo not drawn)	-13%	-15%
Cc1ccc2c(Cl)c(C)c(N3CCOCC3)nc2n1	-15%	i
Cc1ccc(N(Cc2ccccc2)C(=O)c2cccc(S(=O)(=O)N3CC(C)OC(C)C3)c2)cc1 (stereo not drawn)	-16%	i
Cc1ccc2nc(-c3ccsc3)c(Nc3ccc(Cl)cc3)n2c1	-11%	-10%
COc1ccc(-c2cc(C(F)(F)F)c3c(N)c(C(=O)NCCSC)sc3n2)cc1	-1%	-5%
O=C(Nc1ccc(F)cc1)Nc1ccc(NC(=O)c2ccccc2O)cc1	-8%	i
O=C(Nc1ccccc1)C1=C[C@@H](c2ccc(C(F)(F)F)cc2)C[C@@H](OCCCCO)O1	-22%	?
COc1cccc(C2C(C(=O)c3sc(C)nc3C)=C(O)C(=O)N2CCN2CCOCC2)c1 (stereo not drawn)	-1%	.
C=CCCCCCCCCc1nc(SCC(=O)O)n[nH]1	0%	-1%
Cn1c(CS/C(N)=N/N=C/c2ccccc2)c(Br)c(=O)n1-c1ccccc1	-4%	-20%
CCOC(=O)c1oc2nc(C(C)C)c3c(c2c1N)CCC3	-22%	?
COc1ccc(S(=O)(=O)N2CCC(C(=O)N[C@@H](C)C(=O)N3CCCCCC3)CC2)cc1	-7%	i
N=c1c2c3c(sc2ncn1Cc1ccccc1)CCCC3	-10%	-19%
C/C(=C\C(=O)Nc1nccs1)c1ccccc1	-1%	-6%
C1=C(c2ccccc2)Nc2ccccc2N=C1c1ccccc1	-18%	-18%
Cc1ccccc1Nc1cc(C(=O)NCc2ccco2)c2ccccc2n1	-15%	i
O=C(Nc1cccc(F)c1)c1cccnc1NCCc1ccccc1	-21%	-14%
Cc1ccc(C)c(-n2c(SCC(=O)NC(C(=O)O)C(C)C)nnc2-c2cccc(Cl)c2)c1 (stereo not drawn)	-3%	-6%
Cc1ccccc1CN(C)CC(=O)Nc1c(C)cccc1C(C)C	-21%	-16%
S=C(Nc1ccc(Cl)cc1)Nc1cccc2cnccc12	0%	-10%
COC(=O)c1cnc(NNC(=O)c2ccc([N+](=O)[O-])cc2)nc1C(F)(F)F	-11%	i
CC(C)CC1C(=O)N(Cc2cn(Cc3ccco3)nn2)CCS(=O)(=O)N1Cc1ccc(-c2ccc(F)nc2)cc1 (stereo not drawn)	-24%	-9%
Cc1cc(N2CCN(S(=O)(=O)c3ccc4ccccc4c3)CC2)n2ncnc2n1	-14%	-5%
Cc1cccc2nc(-c3cccc(NS(=O)(=O)c4ccccc4)c3)cn12	-14%	-8%
O=C1Nc2ccccc2C12OC1CCCCC1O2 (stereo not drawn)	7%	8%
Cc1cc(=O)oc2c(CN3CCN(CCO)CC3)c(O)ccc12	-28%	?
Cc1cccc2cc(C#N)c(SCCN3CCCCC3)nc12	-29%	-4%
CCCCn1c(N)c(N(CC(C)C)C(=O)c2ccco2)c(=O)[nH]c1=O	-1%	-9%
O=C(CCn1c(=O)c2cccn2c2cccnc21)NCc1ccc(Cl)cc1	-6%	-11%
N#Cc1ccc(Sc2ccccn2)c([N+](=O)[O-])c1	-17%	-13%
Cc1cccc(NC(=O)c2c(C)cc(=O)oc2C)n1	-8%	i
CCCC1NC(=O)c2cc3ccccc3cc2-n2c1nc1ccc(C)cc1c2=O (stereo not drawn)	?	-16%
CCOc1ccc(N(C(=O)CNS(=O)(=O)c2ccccc2)C(CC)C(=O)NCc2ccco2)cc1 (stereo not drawn)	-10%	-15%
OCC[C@@H]1C[C@H](O)[C@@H](O)[C@]2(CCCCO2)O1	-14%	-5%
CSCC[C@H](NC(=O)CCNC(C)=O)c1nc2ccccc2[nH]1	-7%	.
Cc1nc2nc(NC(=O)c3ccccc3F)[nH]n2c(=O)c1Cl	-9%	-10%
Fc1ccc(C2C3=C(Nc4ncnn42)c2ccccc2OC3c2ccncc2)cc1 (stereo not drawn)	-8%	-12%
COC(=O)[C@H](CC(C)C)NC(=O)NC1CCCCC1C (stereo partly drawn)	-7%	-11%
Cc1cccc(Cc2nnc(CCC(=O)N(C)CCc3ccccc3)o2)c1	-4%	i
CCc1nc2c(OCc3ccc(Cl)cc3)cccn2c1N(C)C(=O)c1ccc2c(c1)OCO2	-12%	?
COc1cccc(OC)c1C(=O)NNS(=O)(=O)c1ccc2ccccc2c1	0%	i
CCc1cccc(N2C(=O)N(Cc3c(F)cccc3Cl)c3ccccc3S2(=O)=O)c1	2%	i
CCOC(=O)/C(=N/Nc1ccccc1OC)N1CCCc2ccccc21	4%	?
CC1(C)C(=O)Nc2ccccc2N1C(=O)CSc1nc(-c2ccccc2)cs1	-8%	-11%
N#C/C(=C\Nc1ccc(Cl)cn1)S(=O)(=O)c1ccccc1	-14%	i
COc1cccc(C(=O)CC(=O)C(=O)Nc2cccc([N+](=O)[O-])c2C)c1	-8%	i
Cc1ccc(C)c(N2CN(CCC3=CCCCC3)CNC2=S)c1	-14%	-17%
CCOc1ccc(NC(=O)CNC(=O)c2nn(-c3ccc(OC)c(OC)c3)c(=O)c3ccccc23)cc1	6%	-12%
Cc1c(Cl)c(=O)n2c(=O)c(Cl)c(C)n12	-11%	-3%
Cc1ccc2nc(N/N=C/c3ccccc3F)nc(-c3ccccc3)c2c1	-21%	-8%
Cc1ccc(C(=O)OC2=C(C(=O)c3ccccc3)N(C)S(=O)(=O)c3ccccc32)cc1	-9%[7.34 µM]	-13%[7.34 µM]
O=C(NCC1CCCO1)c1coc2nc3ccccc3nc12 (stereo not drawn)	-14%	.
c1ccc(-c2onc(-c3ccco3)c2-c2ccc3c(c2)OCO3)cc1	-11%&-9%	-9%
CCC(Sc1nc2ccsc2c(=O)n1CCC(=O)O)C(=O)Nc1ccc(Cl)cc1 (stereo not drawn)	-7%	i
CC(C)c1c(O)nc(SCC(=O)N2CCOCC2)[nH]c1=O	0%	i
Cc1ccc(NC2c3ncccc3C(=O)N2c2ccccc2C)cc1C (stereo not drawn)	-8%	-12%
CSc1ccccc1NC(=O)c1cc(CC(C)C)on1	-9%	i
CC(=O)c1cccc(-c2cnc3c(NC=O)cc(-c4ccc(C(=O)N5CCOCC5)cc4)cn23)c1	-12%	2%
O=C(O)Cc1ccc(NC2(c3ccccc3)C(=O)c3ccccc3C2=O)cc1	6%	9%
CCN(CC)C(=O)C1=C(C)N(CCCOC)C(=O)C(CC(=O)NCC2CCCCC2)C1 (stereo not drawn)	3%	-17%

Further records.
SMILES	VACV Venus inh	Vaccinia mCherry
O=C(O)C1=C/C(=C/C=[N+]2c3cc(O)c(O[C@H]4OC(CO)[C@@H](O)[C@@H](O)[C@@H]4O)cc3C[C@@H]2C(=O)[O-])C[C@H](C(=O)O)N1 (stereo partly drawn)	-15%	6%
Cc1cc(C(=O)OCC(=O)Nc2ccc(F)cc2F)c(C)o1	0%	i
O=C(COC(=O)c1ccc(NS(=O)(=O)c2cccs2)cc1)NCc1ccco1	4%	-17%
COc1ccc(C2CCc3cc(OC)c(OC)cc3C2NC=O)cc1OC (stereo not drawn)	-17%	-14%

Screens: PubChem, National Center for Advancing Translational Sciences (NCATS)
